MT1-MMP act inh = blockers of MT1-MMP proenzyme processing, primary screen, HT1080 RFP-PRO-GFP cells, GFP/RFP fluorescence | Matrix metalloproteinase-14 (Homo sapiens), P50281 | AID 651647, 2012 | GFP/RFP ratio change, % at 20 µM | GFP/RFP ratio fluorescence, overnight; percent of plate control window, DMSO zero | 360,000 tested, 0.061% active;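 active = GFP/RFP ratio change of at least 30% with cell ATP level not reduced by more than half and red fluorescence within 50% of control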; note: strong numbers were not always called active
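system = RFP-PRO-GFP reporter HT1080 cells | dosing = 20 µM single dose, 1% DMSO | timing = overnight cell settling, then overnight compound exposure, 37 °C, 5% CO2 | read-out basis = GFP/RFP fluorescence ratio | controls = DMSO and RFP-L50D-GFP cell wells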
PABP FP inh = PABP poly(A) RNA binding inhibitors, primary screen, biochemical, fluorescence polarization, uHTS; Polyadenylate-binding protein 1 (Homo sapiens), P11940; inhibition, % at 35 µM; 290,000 tested, 1% active;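 active = 50% or more with normal probe brightness, or confirmed in later tests; inconclusive = above 50% with abnormal brightness, or retests that disagree; inactive = below 50% or failed in later tests; about a fifth of its hits are not listed in these tables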;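 note: calls also rest on retests at 20 µM and on dose response follow-up; controls were probe without protein and protein plus probe with vehicle; some compounds called inactive have numbers as strong as hits; many hits fall short of the cut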
eIF4H FP inh = human eIF4H binding inhibitors, primary screen, translation initiation inhibitor project, biochemical, uHTS, fluorescence polarization; AID 2012, 2009; inhibition, % at 35 µM; eIF4H fluorescence polarization binding assay; 290,000 tested, 0.94% active;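 active = 50% or more with normal probe brightness, or confirmed in later tests; inconclusive = above 50% with abnormal brightness, or retests that disagree; inactive = below 50% or failed in later tests; about a fifth of its hits are not listed in these tables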;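 note: calls also rest on retests at 20 µM and on dose response follow-up; 0% = protein and probe with vehicle and 100% = probe without protein; strong numbers were not always called active; many hits fall short of the cut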
CSC inhib = cancer stem cell viability inhibitors, primary screen, luminescence. 300,000 tested, 1.1% active. inhibition, % at 7.5 µM. cancer stem cell-like cells viability. AID 2717, 2010;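 active = mean at 75% or more and at least half the replicates too; inconclusive = mean and replicates disagree; tested in HMLE shEcad cells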;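 note: 0% = median of negative and 100% = median of positive control wells; the first replicate is given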
Rce1 inh = yeast Rce1p protease inhibitors, primary screen, biochemical, fluorescence, cell-free homogeneous; CAAX prenyl protease 2 (Saccharomyces cerevisiae (strain ATCC 204508 / S288c)), Q03530; yeast membranes, quenched prenylated peptide cleavage fluorescence; calls only; 290,000 tested, 0.27% active;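 active = fall in fluorescence gain of 50% or more versus controls, with final raw signal at or below 3038400; inconclusive = same 50% fall but final raw signal above 3038400; inactive = fall in fluorescence gain under 50%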;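 note: plate controls were neutral control wells for no effect and wells lacking membranes for full effect; tested at 10 µM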
Target sequence (Q03530 whole entry, looked up): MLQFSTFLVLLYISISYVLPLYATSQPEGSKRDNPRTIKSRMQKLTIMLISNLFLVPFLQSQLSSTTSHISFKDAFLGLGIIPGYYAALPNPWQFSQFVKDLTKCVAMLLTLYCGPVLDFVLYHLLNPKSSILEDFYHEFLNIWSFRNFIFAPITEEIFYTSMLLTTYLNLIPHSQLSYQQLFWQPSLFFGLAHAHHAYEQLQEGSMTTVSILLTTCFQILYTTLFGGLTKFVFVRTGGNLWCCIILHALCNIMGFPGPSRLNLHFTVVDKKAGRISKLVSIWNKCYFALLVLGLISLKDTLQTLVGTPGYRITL
UUG fidelity = modulators of yeast start codon fidelity, primary screen, whole organism, S. cerevisiae, single point, plate reader; S. cerevisiae UUG-firefly luciferase reporter, luminescence/redox ratio; activity score, % at 18.7 µM; 350,000 tested, 0.13% active; AID 602363, 2012;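 active = replicate mean at a twofold rise or more, about +100% in these data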;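 note: firefly luciferase made from a UUG start codon reports start codon fidelity; reporter light over untreated wells divided by growth signal over untreated wells; some hits fall short of that in this replicate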
Env fusion inh = inhibitors of HIV-1 Env-driven cell-cell fusion, primary screen, HeLa-JRFL effector, CEM21 target cells, luciferase; inhibition, % at 12.3 µM; 360,000 tested, 1.1% active;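 active = mean replicate inhibition score of at least 50 and every replicate individually at or above 50; inconclusive = only one of the two criteria met; inactive = mean below 50 and not all replicates reaching 50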;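 note: 0% = plate neutral controls and 100% = maraviroc near 300 nM; one replicate is shown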
MT1-MMP act inh RFP = further read-out of MT1-MMP act inh, marked with its call; RFP signal change, %; measured here: RFP expression control read;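 0 = vehicle wells; hits needed this value within 50% of zero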
* hit, by the source's call; i = inactive; ? = inconclusive; · = not tested or not shown. Only part of the results is shown (hit frequency here may not be typical).

SMILES	MT1-MMP act inh	MT1-MMP act inh RFP	PABP FP inh	eIF4H FP inh	CSC inhib	Rce1 inh	UUG fidelity	Env fusion inh
CC1CCN(c2ccc([N+](=O)[O-])cc2C(N)=O)CC1	-3	-4	-6	-10	-15	i	-6	13
O=C(Cc1cccs1)OCC(=O)c1ccco1	6	4	36	24	0	i	-3	·
CCC(=O)N1CCN(c2ccc(NC(=O)COc3ccc(CC)cc3)cc2)CC1	0	-1	8	-5	41	·	0	-3
Cc1ccc([N+](=O)[O-])cc1N	-3	2	3	3	-3	i	·	7
CC(=O)Nc1cccc(Nc2nc(-c3ccccc3)nc3ccccc23)c1	-1	-4	-3	0	51	·	·	3
CCN(CC)c1ccc(/C=N/NS(=O)(=O)c2ccc(C)c([N+](=O)[O-])c2)cc1	-1	3	8	11	-11	i	·	-3
COc1ccc(CCN2CC(C(=O)N(C)Cc3ccccc3OC)CCC2=O)cc1 (stereo not drawn)	-1	1	-6	-2	3	i	3	-5
Cc1ccc2nc(NC(=O)CCCc3nc4ccccc4s3)sc2c1	4	7	-3	0	10	i	0	·
Cc1ccc(OCC(=O)N2CCCCC2)c(Br)c1	5	5	1	-9	-14	i	-33	-44
CN1CCC(NC(=O)Nc2ccc(Br)cc2)CC1	4	5	0	-3	-23	i	·	-14
Cc1c(C#N)c(N)nc(Cl)c1C#N	6	0	-3	-11	0	i	·	-4
Cc1nn(C)cc1C(C)Nc1nc2nonc2nc1N1CCCCC1 (stereo not drawn)	0	3	-2	-11	-4	i	-1	-4
CCN(CC)c1nc2n(c(=O)n1)CCO2	-4	0	-1	-2	10	i	-25	-172
Cc1cccc(C(=O)Oc2cc(C)[nH]c(=O)c2[N+](=O)[O-])c1	0	3	5	-2	-6	i	-18	-9
CCc1ccc(OC(C)C(=O)N(Cc2ccccc2)C2CCS(=O)(=O)C2)cc1 (stereo not drawn)	2	2	-4	-12	6	i	-3	20
CCCSc1nnc(NC(=O)c2ccco2)s1	-13	-3	-3	-8	-8	i	·	-17
CN(Cc1cccnc1)C(=O)CCCc1c[nH]c2ccccc12	-4	0	1	-9	-9	i	-19	21
CCC(C)(C)n1nnnc1C(c1cc2cc(OC)ccc2[nH]c1=O)N1CCc2ccccc21 (stereo not drawn)	-5	-2	-7	-15	-7	i	-7	-19
Cc1ccc(S(=O)(=O)N(C)C)cc1NC(=O)COC(=O)/C=C/c1ccc(F)cc1	-1	-1	·	·	-11	i	-24	·
COc1ccccc1N1CCN(C(=O)c2cccc(S(=O)(=O)Nc3ccccc3F)c2)CC1	-1	-5	·	·	-11	·	-2	·
COC(=O)N1CCCCC1c1cc(C(=O)N2CCOCC2)no1 (stereo not drawn)	1	5	·	·	·	·	-10	-18
O=C(Nc1ccon1)c1cc(-c2ccccc2)nc2ccccc12	5	14	-3	0	-6	i	-18	·
O=C(O)CC1(CC(=O)NCc2ccncc2)CCCCC1	-4	-1	-3	0	-14	i	-8	-11
CCC1(c2ccc(F)cc2)NC(=O)N(CC(=O)Nc2ccc(C(N)=O)cc2)C1=O (stereo not drawn)	-1	0	-4	-6	-12	·	-14	18
CC(C)(C)OC(=O)N1CCC(CC2CC(c3ccc(Cl)cc3)=NO2)(C(=O)NCC2CCCCC2)CC1 (stereo not drawn)	-18	-10	1	-8	-9	i	0	-17
NC(=O)COc1ncnc2scc(-c3ccc(F)cc3)c12	-4	2	6	3	-5	i	·	-12
CC(C)(C)n1ncc2c(=O)n(CC(=O)N3CCCCC3)cnc21	-2	-2	2	-6	-18	i	·	12
FC(F)(F)c1ccc2c(c1)[nH]c(=S)n2C1CC1	-2	-5	15	2	4	i	·	-22
Cc1ccc(C(=O)c2cnc3cc4c(cc3c2S(=O)(=O)c2ccccc2)OCCO4)cc1	-11	-15	-9	-15	·	i	-7	24
O=C1CC(SCc2nc3ccccc3[nH]2)C(=O)N1c1cccc(Cl)c1 (stereo not drawn)	-18	3	-2	3	5	i	-41	2

Ordered by molecular weight (high to low): some entries from above
SMILES	MT1-MMP act inh	MT1-MMP act inh RFP	PABP FP inh	eIF4H FP inh	CSC inhib	Rce1 inh	UUG fidelity	Env fusion inh
COC(=O)N1CCCCC1c1cc(C(=O)N2CCOCC2)no1 (stereo not drawn)	1	5	·	·	·	·	-10	-18
O=C(Nc1ccon1)c1cc(-c2ccccc2)nc2ccccc12	5	14	-3	0	-6	i	-18	·
FC(F)(F)c1ccc2c(c1)[nH]c(=S)n2C1CC1	-2	-5	15	2	4	i	·	-22

Remaining list, next part
SMILES	MT1-MMP act inh	MT1-MMP act inh RFP	PABP FP inh	eIF4H FP inh	CSC inhib	Rce1 inh	UUG fidelity	Env fusion inh
COc1ccc(S(=O)(=O)NC(C)C(=O)Nc2ccccc2F)cc1 (stereo not drawn)	-4	1	7	-6	6	i	-17	-47
Oc1oc(-c2ccccc2)nc1C=NCc1ccccc1	7	-6	-6	0	18	i	12	-68
Cc1ccc(S(=O)(=O)c2cccc(S(=O)(=O)N3CCCC3)c2)cc1S(=O)(=O)N1CCCC1	5	-16	-1	-6	14	i	-14	?
Cc1ccc(S(=O)(=O)N(CC(=O)Nc2cccc([N+](=O)[O-])c2)C2CCCCC2)cc1	-3	-3	-1	-4	·	i	-6	·
CCOCCn1c(SCC)nc2c1c(=O)[nH]c(=O)n2C	0	2	15	8	·	i	-8	-33
O=C(Nc1ccc(NC(=O)c2cccs2)cc1)c1cccnc1	2	0	-10	-10	-9	i	·	6
C=CCN1C(=O)C(Cc2ccc(Br)cc2)S/C1=N\N=C\c1ccco1 (stereo not drawn)	1	2	-8	-3	-3	i	-11	8
Nc1nc(-c2ccc(Cl)cc2)nc(-c2ccc(Cl)cc2)n1	8	5	2	5	25	i	-21	3
COc1ccccc1OCCNC(=O)c1ccccc1OCc1c(C)noc1C	-2	-1	·	·	2	·	8	3
CC(C)c1cc(C(=O)N2CCCC(N3CCN(c4ccccc4F)CC3)C2)nc(N)n1 (stereo not drawn)	2	2	-4	0	-21	i	-5	1

Brought forward from above: 7 entries, then new ones.
SMILES	MT1-MMP act inh	MT1-MMP act inh RFP	PABP FP inh	eIF4H FP inh	CSC inhib	Rce1 inh	UUG fidelity	Env fusion inh
Cc1ccc(S(=O)(=O)N(CC(=O)Nc2cccc([N+](=O)[O-])c2)C2CCCCC2)cc1	-3	-3	-1	-4	·	i	-6	·
CCOCCn1c(SCC)nc2c1c(=O)[nH]c(=O)n2C	0	2	15	8	·	i	-8	-33
O=C(Nc1ccc(NC(=O)c2cccs2)cc1)c1cccnc1	2	0	-10	-10	-9	i	·	6
C=CCN1C(=O)C(Cc2ccc(Br)cc2)S/C1=N\N=C\c1ccco1 (stereo not drawn)	1	2	-8	-3	-3	i	-11	8
Nc1nc(-c2ccc(Cl)cc2)nc(-c2ccc(Cl)cc2)n1	8	5	2	5	25	i	-21	3
COc1ccccc1OCCNC(=O)c1ccccc1OCc1c(C)noc1C	-2	-1	·	·	2	·	8	3
CC(C)c1cc(C(=O)N2CCCC(N3CCN(c4ccccc4F)CC3)C2)nc(N)n1 (stereo not drawn)	2	2	-4	0	-21	i	-5	1
Cc1cc(C)c(OCC(=O)NCCCn2nc(C)cc2C)c(C)c1	-1	0	·	·	·	·	-1	-31
O=C(Oc1ccc(N(C(=O)c2ccncc2)S(=O)(=O)c2ccc(Cl)cc2)cc1)c1ccncc1	3	-3	1	-5	7	i	-11	0
CCOc1ccc(OCc2ccc(C(=O)NC(C)(C)C)o2)cc1	4	-13	-12	-4	19	i	-15	1
Nc1ccn(CCCNCC(c2ccccc2)c2ccccc2)c(=O)n1	0	8	·	·	·	·	-8	1
Cc1cc(C)n(-c2nc(SCCN3CCOCC3)c3c4c(sc3n2)CCCC4)n1	-6	-5	·	·	·	·	-30	12
Cn1nc([N+](=O)[O-])nc1Oc1ccccc1F	1	1	2	11	·	i	·	-10
CN(C(=O)NC1CCCCC1)c1ccccc1	4	2	-6	3	-5	i	·	5
Cc1sc(NC(=O)c2oc3ccccc3c2C)c(C#N)c1C	2	7	8	11	-2	i	-4	·
Cc1ccc(Cl)c2c1NC(=O)C2(O)CC(=O)c1ccccc1O (stereo not drawn)	0	8	1	-6	-7	i	-15	-15
Cc1ccc(C)c(NC(=S)NNc2ccc(F)cc2F)c1	-1	1	7	5	-7	i	-9	4

Continued, starting with the last two of the part before.
SMILES	MT1-MMP act inh	MT1-MMP act inh RFP	PABP FP inh	eIF4H FP inh	CSC inhib	Rce1 inh	UUG fidelity	Env fusion inh
Cc1ccc(Cl)c2c1NC(=O)C2(O)CC(=O)c1ccccc1O (stereo not drawn)	0	8	1	-6	-7	i	-15	-15
Cc1ccc(C)c(NC(=S)NNc2ccc(F)cc2F)c1	-1	1	7	5	-7	i	-9	4
CCc1ccc(C(=O)NCc2ccc(Cl)cc2Cl)cc1	-1	-3	-9	2	4	i	-12	-40
NS(=O)(=O)c1ccc(CCNC(=O)Cc2ccccc2[N+](=O)[O-])cc1	2	7	4	-3	·	i	·	22
COc1ccccc1-c1coc2cc(O)cc(O)c2c1=O	8	4	-4	0	-13	i	-7	·
C=CCN(C(=O)c1ccc2snnc2c1)c1ccccc1	1	2	11	2	-8	i	-6	-10
COCCn1c(SCC(N)=O)nnc1-c1c[nH]c2ccccc12	6	9	1	1	13	i	-18	-8
COc1ncccc1-c1cc2nc(NCCCN(C)C)n(C)c(=O)c2s1	9	5	·	·	·	·	-5	10
O=C(CCn1cnnn1)Nc1ccc(F)cc1	1	1	16	0	-1	i	·	-6
Cc1cc(C)n2c(SCCN3C(=O)c4ccccc4C3=O)nnc2n1	-1	7	-9	-1	-15	i	-21	-9
CCCCN1CCCC1CNC(=O)c1cc(C#N)c2ccccc2c1OC (stereo not drawn)	·	·	0	-4	-9	i	·	·
NC1=NC[C@H](c2ccccc2)N1CCc1cc(C(F)(F)F)cc(C(F)(F)F)c1	-4	-1	16	-4	39	i	-5	-10
Cc1cc(NC(=O)CSc2nnc(NC(=O)C3CC(=O)N(c4ccccc4)C3)s2)no1 (stereo not drawn)	-4	0	-6	7	16	i	-9	2
CCC(Oc1cc(Cl)ccc1Cl)C(=O)NNC(=O)CCC(=O)O (stereo not drawn)	-14	-9	6	2	·	i	-20	5
C#CCOCCOCCOCCNc1nc(N2CCN(C(=O)[C@H](CCC(=O)O)n3cc(C(N)[C@H](C)CC)nn3)CC2)nc(N2CCN(C(=O)[C@H](CCC(=O)O)n3cc(C(N)[C@H](C)CC)nn3)CC2)n1 (stereo partly drawn)	1	4	20	3	11	i	37	-9
CS/C(N)=N/N=C/c1ccc2c(c1)OCO2	2	1	2	-2	8	i	·	-26
COc1ccc(C(O)c2ncc(-c3ccc4ccccc4c3)[nH]2)cc1F (stereo not drawn)	-3	2	·	·	·	·	-30	-12
